# Source: PubChem BioAssay
# CapD inh = inhibitors of Bacillus anthracis CapD enzyme; z-score (concentration not given with the values); purified CapD enzyme, fluorescence intensity read-out; hits give low values; some hits fall short of the stated cut; actives 0.23% (n = 140,000);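 active means z-score under -4 in either of two replicates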;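 further: stock transfer was 100 nL into about 40 µL; score is relative to mean and spread of the plate; one replicate is shown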
# AID504770 = growth inhibitors of E. coli YBA685 in a screen for V. cholerae RctB (chromosome II replication) inhibitors; actives 0.27% (n = 130,000); E. coli YBA685 rctB-dependent plasmid, OD600 growth, 3 h; hits give low values; z-score (concentration not given with the values);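 active means z-score under -2 on both plates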;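 further: wells of about 30 µL received 100 nL stock; score is relative to mean and SD of the test wells; the first replicate is given; strong numbers were not always called active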
# An asterisk follows results filed as active; x = no result given; & = joins results of further samples.
# Below each compound – CapD inh	AID504770
- CCOC(=O)c1ccc2c(c1)sc1nc(-c3ccc(C)cc3C)cn12
→ 11	1
- O=C(/C=C/c1ccc(OC(F)(F)F)cc1)N1CCOCC1
→ -0.035	-0.6
- Cc1cccc(-c2noc(CN(C(=O)Cc3ccccc3)C(C)C)n2)c1
→ -0.2	2
- NS(=O)(=O)c1ccc(NC(=O)CN2CCCCCC2)cc1
→ x	0
- COc1cccc(C(N)=O)c1OCC(=O)N(C1CCCCC1)C1CCCCC1
→ x	-0.9
- COc1ccc(OC)c(C(=O)CN2C3=NCCCN3c3ccccc32)c1
→ -0.2	x
- NC(=O)c1cccnc1Sc1ccc(Cl)cc1
→ 0.07	x
- O=C(O)C1CSC2(C(=O)O)CCC(=O)N12 (stereo not drawn)
→ x	0.85
- COc1ccc(-c2nc3ccccc3n2OCc2c(Cl)cccc2Cl)cc1
→ 0.83	x
- Nc1ccnn1CC1CCCCC1
→ x	0.1
- CCOc1ncccc1C(=O)OCc1cc(=O)n2cc(Br)ccc2n1
→ x	-0.55
- CC(=O)Nc1cc(Cl)ccc1Nc1ccccc1
→ -0.52	0.1
- CCN=C1SC(CC(=O)Nc2sc(C)c(C)c2C(=O)OCC)C(=O)N1CC (stereo not drawn)
→ x	0.1
- CC(C)CN1CCC(CNC(=O)c2cccc3c2C(=O)N(Cc2cccnc2)C3)C1 (stereo not drawn)
→ -0.24	-0.8
- Cn1c(SCC(=O)NCCC2=CCCCC2)nc2sccc2c1=O
→ x	-0.15
- Cn1c(Cc2noc(-c3ccccc3)n2)nc2ccccc21
→ x	1.1
- O=c1[nH]nc(N2CCSCC2)[nH]1
→ 0.23	-0.05
- Cc1ccc(SCC(=O)c2cc(C)c(OC(=S)N(C)C)c(C)c2)cc1
→ 0.1	x
- COc1ccc(NC(=O)C2OC3OC4(CCCCC4)OC3C3OC4(CCCCC4)OC23)cc1Cl (stereo not drawn)
→ -0.61	x
- CSc1cc(-c2ccc(Oc3ccccc3)cc2)[nH]n1
→ -0.17	x

# Seven compounds out of the list, ordered by count of non-hydrogen atoms, low to high:
# Below each compound – CapD inh	AID504770
- O=C(O)C1CSC2(C(=O)O)CCC(=O)N12 (stereo not drawn)
→ x	0.85
- NC(=O)c1cccnc1Sc1ccc(Cl)cc1
→ 0.07	x
- CC(=O)Nc1cc(Cl)ccc1Nc1ccccc1
→ -0.52	0.1
- O=C(/C=C/c1ccc(OC(F)(F)F)cc1)N1CCOCC1
→ -0.035	-0.6
- Cc1ccc(SCC(=O)c2cc(C)c(OC(=S)N(C)C)c(C)c2)cc1
→ 0.1	x
- Cc1cccc(-c2noc(CN(C(=O)Cc3ccccc3)C(C)C)n2)c1
→ -0.2	2
- CC(C)CN1CCC(CNC(=O)c2cccc3c2C(=O)N(Cc2cccnc2)C3)C1 (stereo not drawn)
→ -0.24	-0.8

# Back to the main list, repeating the two entries before the break.
# Below each compound – CapD inh	AID504770
- COc1ccc(NC(=O)C2OC3OC4(CCCCC4)OC3C3OC4(CCCCC4)OC23)cc1Cl (stereo not drawn)
→ -0.61	x
- CSc1cc(-c2ccc(Oc3ccccc3)cc2)[nH]n1
→ -0.17	x
- CCc1cccc(NC(=S)N(C)Cc2cn(C)c3ccccc23)c1
→ 0.18	0.8
- CCN1CCN(C(=O)c2ccc(N3CC4CC(C3)c3cccc(=O)n3C4)c(NC(=O)c3cc(OC)cc(OC)c3)c2)CC1 (stereo not drawn)
→ -0.02	x
- COc1cc(/C=c2\sc3nc(-c4ccccc4C)nn3c2=O)cc(Br)c1OC(C)=O
→ -0.59	-1
- O=C1O/C(=C\c2ccccc2)c2ccccc21
→ 3.3	-0.85
- CCOc1ccc(S(=O)(=O)N2CCC(C)CC2)cc1
→ -0.18	-0.5
- CC(C)COC(=O)c1ccccc1OC(=O)c1ccncc1
→ 0.08	-0.6
- Cc1ccc(CNCCc2cccs2)s1
→ x	-0.15
- NC(=O)Nc1cc(Cl)ccc1Cl
→ -0.36	x
- COc1cc(C(=O)N(Cc2ccc(S(C)(=O)=O)cc2)C2CCN(Cc3ccccc3)CC2)cc(OC)c1OC
→ -0.61	x
- O=C(O)c1ccccc1C(=O)NCCc1ccccc1
→ 0.005	-1.1
- Nc1cc2c(cc1Cl)OCCO2
→ x	-0.45
- O=C1c2ccccc2C(=O)C1c1ccccc1F
→ 0.88	0.7
- CCOC(=O)c1ccccc1NC(=O)Cn1c(-c2cccs2)noc1=O
→ 0.78	0.05
- CCn1c(CSc2nnc3ccccn23)nc2cc(S(=O)(=O)N(C)C)ccc21
→ x	0.3
- COc1ccc(-c2cn3c(C)c(C(=O)N4CCc5ccccc54)sc3n2)cc1
→ 0.24	-0.8
- Cc1nc(SC(C)C(=O)NC2(C#N)CCCCC2)c2ccccc2n1 (stereo not drawn)
→ x	-0.3
- FC(F)(F)c1cc(-c2ccc3ccccc3c2)nn1C(=S)N1CCOCC1
→ -1.2	-1
- OC(CNCc1cn(-c2ccccc2)nc1-c1cccs1)CN1CCOCC1 (stereo not drawn)
→ x	-0.3
- Cc1nc2ccccc2c2oc(C(=O)N3CCC(C)CC3)cc12
→ -1.1	-0.55
- CCOC(=O)C1=C(C)N2CCN=C2S1
→ -0.2	-0.05
- NC(=O)c1ccc(NC(=O)c2ccccc2C(=O)O)cc1
→ x	-0.75
- O=C1NC(c2ccco2)Nc2ccccc21 (stereo not drawn)
→ x	-0.8
- CN(C)CCCNc1nc(-c2cccnc2)nc2ccccc12
→ 0.6	0.15
- OCc1ccccc1CNc1ccc(F)cc1
→ x	-0.5
- COc1ccc(/C=C(/NC(=O)c2ccccc2)C(=O)N2CC3(C)CC2CC(C)(C)C3)cc1 (stereo not drawn)
→ -0.17	0.3
- Cc1cc(C)cc(N2CC34C=CC(O3)C(C(=O)OCC(=O)NC3CCCC3)C4C2=O)c1 (stereo not drawn)
→ x	-0.5
- CSc1ccccc1NC(=O)CC1Nc2ccccc2NC1=O (stereo not drawn)
→ 0.2	-0.65
- CNC(=O)c1sc(Nc2ccc(OC)cc2)nc1C
→ x	0.4
- Cc1nn(CCCC(=O)O)c(=O)c2c1sc1ccccc12
→ -0.38	-0.45
- Cc1ccc(CCP(=O)(O)CCc2ccc(C)nc2)cn1
→ 0.72	1.9
- Cc1cc(=O)oc2cc(OCC(=O)c3cccs3)ccc12
→ x	-0.2
- Cc1ccc2oc(-c3ccc4c(c3)OCO4)cc(=NC(C)C(=O)O)c2c1 (stereo not drawn)
→ x	0.85
- COc1cc(C(=O)/C=C/Nc2cc(C)ccc2O)cc(OC)c1OC
→ -3.4	2.1
- CC(C)c1cc(N)cc(C(C)C)c1O
→ x	0.4
- O=C(O)c1ccc2c(c1)nc1n2CCCC1
→ x	-1.1
- CC1=C(C(=O)N(C)C)C(c2cccs2)NC(=O)N1 (stereo not drawn)
→ 0.095	-1
- Cc1[nH]nc2c1C(C(C)C)C(C#N)=C(N)O2 (stereo not drawn)
→ 0.05	-1.5
- CCOc1ccc(C2C3=C(CCCC3=O)NC3=C2C(=O)c2ccccc23)cc1 (stereo not drawn)
→ -0.09	-0.4
- Cc1ccc(C2C=C(c3ccccc3)NC(=O)C2C#N)cc1 (stereo not drawn)
→ 44	0
- O=C1[C@H]2CSC3(C(=O)c4ccccc4C3=O)N2C(=O)[C@H]2CSC3(C(=O)c4ccccc4C3=O)N12
→ 0.79	-0.35
- CC(N=C1NC(C)(C)Cc2ccccc21)C(=O)O (stereo not drawn)
→ x	1.6
- CCOC(=O)CCCn1ncn2c(cc3occc32)c1=O
→ -0.045	-0.75
- O=C(O)/C=C\C(=O)N1CCN(Cc2ccc3c(c2)OCO3)CC1
→ 0.11	-1.3
- CCOC(=O)c1ccc(-n2c(=S)sc3c2nc(SCC(=O)O)n2c4ccccc4nc32)cc1
→ -0.17	x
- COc1ccc(C(=O)OCC(=O)Nc2ccc(N(C)C)cc2)cc1
→ x	0.9
- CSCc1cc(Sc2ccc(Cl)cc2)nc(-c2cccnc2)n1
→ -0.45	x
- O=C(Nc1ccccc1N1CCN(c2ccccc2)CC1)c1ccccc1
→ x	-0.75
- Nc1sc2c(c1C(=O)NCCc1ccccc1)CCC2
→ 0.21	-0.75
- O=C(CCCN1C(=O)c2cccnc2C1=O)Nc1ccc(C(F)(F)F)cc1
→ 60	x
- O=C(CCN1Cc2ccccc2C1)c1ccc2c(c1)OCCO2
→ 0.76	-0.45
- O=C(NCc1nc2ccccc2[nH]1)c1ccc(S(=O)(=O)N2CCCC2)cc1
→ x	-1.4
- O=C(Cc1ccc(CC(=O)c2ccccc2)cc1)c1ccccc1
→ 1.3	1.6
- O=C1CC(Cc2ccccc2)C(=O)N1c1cccc(C(F)(F)F)c1 (stereo not drawn)
→ 0.61	-0.3
- Cn1cc(S(=O)(=O)NCC2CCCO2)c(=O)n(C)c1=O (stereo not drawn)
→ x	-0.85
- CCOC(=O)c1c(NC(C)=O)sc2c(OCC(O)CNC(C)(C)C)c(Br)ccc12 (stereo not drawn)
→ 3.1	-1.5
- CC(C)N(C(C)C)S(=O)(=O)c1ccc(NCCc2ccc(S(N)(=O)=O)cc2)nc1
→ x	1.1
- CCC(CC)c1nnc(NC(=O)Cc2csc(C)n2)s1
→ -0.12	0.95
- COc1ccc2[nH]cc(CCNS(=O)(=O)c3ccc(-n4cnnn4)c(OC)c3)c2c1
→ -0.57	1.1
- Cc1ccc(S(=O)(=O)C2(C(=O)N3CCN(c4ccccc4)CC3)CC2)cc1
→ 0.28	0.4
- CC1(C)CC(=O)C=C(Sc2ccc(C#N)cc2[N+](=O)[O-])S1
→ -0.93	x

# (cont.)
compound	CapD inh	AID504770
COC(=O)C(Cc1ccccc1)NC(=O)c1n[nH]c(=O)c2ccccc12 (stereo not drawn)	x	1.7
CCC(CC)C(=O)N1CC(=O)Nc2ccc(F)cc2C1c1ccccc1 (stereo not drawn)	0.29	0.5
NC(=O)c1ncccc1C(=O)O	-0.15	x
CCCNC(=O)C1CCN(c2nc3ccccc3n2Cc2ccccc2F)CC1	-0.24	0.05
FC(F)(F)c1cccc(N2CCN(CCN3CCOCC3)CC2)c1	x	-0.25
CCN(CC)S(=O)(=O)c1cccc(C(=O)NC(C)C(c2cccs2)N2CCCC2)c1 (stereo not drawn)	x	0.8
N#CC1=C(CBr)NC(CBr)=C(C#N)C12CCCCC2	0.35	-0.65
Cc1ccc(Oc2cc(C)nc(-c3ccccc3O)n2)cc1	-1.1	-0.15
COc1cc(C2C(C(=O)OCC3CCCO3)=C(C)NC3=C2C(=O)CC(c2cccs2)C3)cc(OC)c1OC (stereo not drawn)	12	x
O=C(CNS(=O)(=O)c1cccc2nsnc12)NNC(=O)OCCN1CCN(Cc2ccc([N+](=O)[O-])cc2)CC1	-0.71	x
COc1cc2c(cc1OC)C1CN3CCc4cc(OC)c(OC)cc4C3CN1CC2 (stereo not drawn)	0.075	0.1
COc1ccc(CNC(=O)c2ccc(CNC(N)=O)cc2)cc1	x	0
Cc1nc2c(c(C)nn2C(C)(C)C)c(C)c1CCC(=O)O	1.1	0.65
N#C/C(=C/c1cn(-c2ccccc2)nc1-c1cc2ccccc2o1)S(=O)(=O)c1ccc(Cl)cc1	-0.11	-0.3
O=C(NCc1ccccc1)c1ccc2nc3ccccc3c(=O)n2c1	0.8	1
COC(=O)c1c(NC(=O)c2ccc(C)cc2)sc(C)c1C	0.17	1.8
CCOC(=O)c1coc2c(F)c(F)c(F)cc2c1=O	-12*	0.4
O=C(Nc1cccc(-c2csnn2)c1)c1cccs1	-0.035	-1.5
C=CCn1c(N)c(C(=O)OCC)sc1=S	-1.1	x
Cc1ccc2nc(C(F)(F)F)cc(N3CCN(/C=C(/C#N)S(=O)(=O)c4ccccn4)CC3)c2c1	3	-0.6
COc1cc(OC)cc(C(=O)Nc2cc(C(=O)N3CC(C)CC(C)C3)ccc2N2CC3CC(C2)c2cccc(=O)n2C3)c1 (stereo not drawn)	-0.21	x
COc1ccc(OC)c2c(C)cc(Cl)nc12	15	-0.3
CNC(=O)Nc1c[nH]c2cc(Cl)ccc2c1=O	x	-1.4
O=C(O)C1C2C=CC(C2)C1C(=O)NCCCn1ccnc1 (stereo not drawn)	0.34	-0.35
Cc1nc2ccccn2c(=O)c1Cl	0.77	x
COC(=O)C1=C(C)Nc2ncnn2C1/C=C/c1ccccc1 (stereo not drawn)	x	1.4
O=C(CC(SCc1ccco1)c1ccc(O)cc1)c1ccco1 (stereo not drawn)	x	0.85
Cc1nn(Cc2ccc(C(=O)Sc3ccc(C(F)(F)F)cn3)o2)c(C)c1Br	-0.36	0.55
O=C(O)CCc1nn2c3ccccc3nc2n(-c2ccccc2)c1=O	-0.03	0.15
CC1CC(C)CN(S(=O)(=O)c2ccc(NC(=O)CNC(=O)c3ccco3)cc2)C1 (stereo not drawn)	x	1.9

# Complete entries, quoted from the list:
# CNC(=O)Nc1c[nH]c2cc(Cl)ccc2c1=O is listed with CapD inh: x; AID504770: -1.4
# O=C(CC(SCc1ccco1)c1ccc(O)cc1)c1ccco1 (stereo not drawn) is listed with CapD inh: x; AID504770: 0.85

# Next section
compound	CapD inh	AID504770
O=C(O)C12CC3CC(C1)CC(n1ncc(NCc4ccc5c(c4)OCO5)c(Cl)c1=O)(C3)C2	-0.58	-0.6
CC1=C(C(=O)Nc2ccc(C)cc2)C(c2ccc(C)o2)C2=C(CC(C)(C)CC2=O)N1 (stereo not drawn)	12	-0.95
Oc1ccc(N=Cc2ccc(F)c(F)c2)cc1N=Cc1ccc(F)c(F)c1	0.91	-0.1
Cc1oc2cc(O)ccc2c(=O)c1Oc1ccc(Cl)cc1	7.3	1.6
Cc1onc(-c2c(Cl)cccc2Cl)c1C(=O)N=C(N)N1CCCC1	0.53	-0.6
CC(NC(=O)C1CCCC1)c1ccccc1 (stereo not drawn)	-0.32	0.5
O=C(O)c1ccccc1OCCOc1ccccc1	-0.87	1.1
O=C(OCCc1ccc(Br)cc1)N1CCN(c2ccc(C(F)(F)F)cn2)CC1	0.66&0.33	x
Cc1ccc2cc(C#N)c(SCC(=O)Nc3ccccc3)nc2c1	x	-1.8
COC(=O)c1cn(Cc2cc(OC)ccc2OC)cc(F)c1=O	0.76	0.65
O=C(O)c1ccc(-c2nc(-c3ccc4c(c3)C(=O)c3cc([N+](=O)[O-])ccc3-4)c(-c3ccccc3)[nH]2)cc1	-0.1	x
